High-throughput results deposited in PubChem BioAssay by several laboratories.
YopH inh: inhibitors of Yersinia enterocolitica YopH tyrosine phosphatase. inhibition, %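 (about 10 µM by stock and volumes)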. fluorescence Ex485/Em525. hit rate 0.16% among 140,000;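 active means inhibition of 50% or more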;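 further: controls were vehicle for no effect and minimum signal wells for full effect; inactives centre near -20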
Arbovirus inh: arbovirus infection inhibition; inhibition, % at 10 µM; arbovirus infection cell-based antiviral screen; hit rate 0.37% among 200,000;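 active means inhibition from about 30%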;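 further: bluetongue infection of BSR cells; cell survival read as ATP light after 72 h; 0% = infected wells without compound and 100% = uninfected wells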
Mtb growth: M. tuberculosis H37Rv growth inhibitors, H37Rv strain (AID 1626); inhibition, % at 10 µM, or IC50 in µM where a hit was titrated; M. tuberculosis H37Rv growth inhibition; higher % means a stronger effect; hit rate 0.95% among 220,000;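 active means confirmed in a dose series; inconclusive means inhibition above 80% but not taken into the dose series; inactive means below 80% or under 30% at every dose of the series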;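 further: bacteria incubated seven days before Alamar blue readout; 0% = bacteria only wells and 100% = bacteria with antibiotic wells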
RecA intein inh: inhibitors of M. tuberculosis RecA intein splicing; AID 2221; P9WHJ3; hit rate 0.75% among 290,000; inhibition, %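 (about 9 µM by stock and volumes)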; cell-free RecA intein splicing, fluorescence; in the data active means inhibition above about 30%; inconclusive means no clear call, values can overlap the other calls;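 further: 0% = vehicle wells and 100% = reference inhibitor control wells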
Target sequence (P9WHJ3 whole entry, looked up): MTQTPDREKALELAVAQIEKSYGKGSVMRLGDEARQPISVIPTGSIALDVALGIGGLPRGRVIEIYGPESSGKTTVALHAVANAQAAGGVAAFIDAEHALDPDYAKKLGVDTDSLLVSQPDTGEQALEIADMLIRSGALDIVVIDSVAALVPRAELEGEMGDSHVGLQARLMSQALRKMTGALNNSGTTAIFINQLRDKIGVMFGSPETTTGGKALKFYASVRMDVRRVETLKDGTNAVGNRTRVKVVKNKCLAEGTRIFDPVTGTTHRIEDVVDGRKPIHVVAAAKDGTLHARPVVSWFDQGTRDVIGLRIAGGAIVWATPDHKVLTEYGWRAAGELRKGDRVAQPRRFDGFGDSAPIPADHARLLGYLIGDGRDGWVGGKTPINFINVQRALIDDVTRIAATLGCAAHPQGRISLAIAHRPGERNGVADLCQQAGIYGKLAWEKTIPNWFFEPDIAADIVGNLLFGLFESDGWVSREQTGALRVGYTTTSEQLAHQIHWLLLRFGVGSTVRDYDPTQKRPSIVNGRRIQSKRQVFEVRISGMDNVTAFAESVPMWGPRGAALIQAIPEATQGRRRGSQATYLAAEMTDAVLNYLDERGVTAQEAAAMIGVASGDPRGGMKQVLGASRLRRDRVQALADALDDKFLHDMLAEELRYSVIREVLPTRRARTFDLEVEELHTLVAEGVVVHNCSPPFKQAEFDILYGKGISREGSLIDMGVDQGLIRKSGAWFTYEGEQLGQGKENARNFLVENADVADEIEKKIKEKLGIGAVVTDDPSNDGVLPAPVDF
Mtb bLac sens: beta-lactam sensitization of Mtb H37Rv | M. tuberculosis H37Rv growth with meropenem, percent inhibition; hits of this screen are not shown here | inhibition, % at 25 µM | hit rate 0.27% among 330,000 | AID 434955;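 active means about 74% or more and at least 40 points above the plate without the antibiotic, then above 30% in a dose series; inconclusive means first-round hits that could not be retested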;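 further: growth measured after seven days incubation then overnight dye step; 0% = bacteria only wells and 100% = bacteria with antibiotic; twin plates without the antibiotic show which effects depend on it; some results filed as inactive read as strong as hits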
Arbovirus inh repeat: further read-out of Arbovirus inh, marked with its call; inhibition, %; measured here: 10K subset replicate screen; many hits read low in the repeat;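 first of two repeat runs on a subset; 0% = infected and 100% = uninfected wells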
An asterisk follows results filed as active; ? = inconclusive; / = no result given. Only part of the results is shown, so the mix of outcomes need not match the whole.

SMILES | YopH inh | Arbovirus inh | Mtb growth | RecA intein inh | Mtb bLac sens | others
Cn1cc(CNCC2CCCO2)c(-c2ccc(Oc3ccccc3)cc2)n1 (stereo not given) | / | -31.8 | -4.2% | 4.0 | 0.9
CC1=CSC2=NS(=O)(=O)CCN12 | / | / | -3.2% | -1.0 | -7.8
Cc1ccc(C(=O)O)cc1N1C(=O)c2cccc3c([N+](=O)[O-])ccc(c23)C1=O | / | / | / | -44.4 | 0.9
COc1ccc(C(C)=O)cc1CN1C(=O)NC2(CCCCCC2)C1=O | -1.5 | 4.9 | 4.5% | 2.0 | -29.6
CC(C)OCCCNC(=O)C1CCC(CNS(=O)(=O)c2cccc3nsnc23)CC1 (stereo not given) | / | / | / | -1.5 | -4.0
Cc1cc(N2CCN(S(=O)(=O)c3ccc(Cl)c(Cl)c3)CC2)c2ccccc2n1 | / | -11.8 | 4.5% | 15.5 | 20.9
Cc1ccc(CNc2oc(-c3ccco3)nc2C#N)cc1 | -40.0 | 2.3 | / | 3.7 | -0.7
O=C(Nc1ccc(Cl)c(Cl)c1)c1ccc2c(c1)OCO2 | / | / | / | -1.1 | 2.7
CC1CCC(=C(C#N)c2nc(-c3cc4ccccc4oc3=O)cs2)CC1 (stereo not given) | 1.3 | 5.0 | -0.9% | 4.0 | 2.1
Cc1ccc2nc(NC(=O)Cn3nc(C)c([N+](=O)[O-])c3C)sc2c1 | -31.4 | 5.0 | 14.1% | 6.1 | 0.0
CCS(=O)(=O)N1CCCC(C(=O)NCc2cccc(OC)c2)C1 (stereo not given) | -0.9 | 8.9 | -5.2% | 2.6 | 3.1
COC(C/C=C\[C@@H](O)COCc1ccccc1)OC | / | / | -6.2% | -0.7 | /
Cc1ccc(NC(=O)Nc2ccccc2)cc1[N+](=O)[O-] | -27.8 | 6.8 | -3.4% | 2.9 | -0.3
CNc1nc(C23CC4CC(CC(C4)C2)C3)cs1 | / | 16.2 | 2.5% | 10.4 | 1.0
O=C(CNC(=O)c1ccco1)NCC(=O)OCc1cccc(C(=O)Oc2ccccc2)c1 | -42.4 | -5.7 | -5.6% | -0.4 | 4.9
Cc1cccn2c(=O)c(C=C(C#N)C#N)c(N3CCN(c4cccc(Cl)c4)CC3)nc12 | / | / | / | -1.4 | 0.8
CCc1ccc(NC(=O)Cn2nnc(C(=O)NCc3cccs3)c2N)cc1 | / | 0.8 | -3.9% | 2.7 | -7.3
NS(=O)(=O)c1ccc(CNc2ccc3ccccc3n2)cc1 | / | / | / | -0.6 | 7.3
COc1ccc(CCNCc2cc(C)n(-c3ccc(OC)cc3)c2C)cc1 | / | / | / | 2.6 | 87.6
O=C(c1ccc(Cl)nc1)N1CCN(S(=O)(=O)c2ccccc2)CC1 | / | / | -7.0% | 2.0 | -4.8
CCN1CCN(C(c2cccs2)C(C)NC(=O)c2ccco2)CC1 (stereo not given) | 11.9 | 1.5 | -1.0% | -1.3 | -3.1
C/C(=N\OCC(=O)Nc1nc2ccccc2s1)c1ccccc1 | -22.0 | 19.1 | 17.7% | 12.5 | /
COc1ccc(C2c3c(ncn(CCN4CCOCC4)c3=N)Oc3ccc4ccccc4c32)cc1OC (stereo not given) | 1.9 | -14.5 | 1.7% | / | 2.1
CCn1cc(/C=N\NC(=O)c2ccc(Cl)cc2)cn1 | -25.7 | 0.2 | 4.2% | -3.4 | -3.4
COC(=O)[C@H]1[C@H](c2ccccc2)[C@H](C(=O)OC)O[C@H]1c1ccccc1 | / | / | / | 2.0 | -5.7
COc1ccc(OC)c(/C=C2\Oc3cc(OCC(=O)N4CC(O)C[C@H]4C(=O)O)ccc3C2=O)c1 (stereo not given in full) | / | / | / | -5.4 | -7.7
CCOc1ccc(N(CC(=O)N2CCC(Cc3ccccc3)CC2)S(C)(=O)=O)cc1 | / | 8.8 | -5.1% | 3.0 | 6.1
O=C(CCC(=O)c1cccs1)NCc1ccccc1 | -7.4 | -0.2 | -2.0% | 2.4 | -8.0
CC(C(=O)NCc1ccccn1)c1ccc([N+](=O)[O-])cc1 (stereo not given) | / | -0.4 | 2.8% | 3.2 | -0.1
Cc1nnc(SCC(=O)Nc2sc3c(c2C(N)=O)CCCC3)[nH]c1=O | -31.3 | 0.4 | -13.5% | -2.7 | -4.1
CCC(=O)O[C@]1(C(=O)CCl)[C@@H](C)C[C@H]2[C@@H]3CCC4=CC(=O)C=C[C@]4(C)[C@@]3(F)[C@@H](O)C[C@@]21C | -27.9 | 14.8 | 7.8% | 4.9 | 1.6
O=C(Nc1ccccc1C(=O)NCCCN1CCOCC1)c1ccc(Cl)cc1 | / | / | / | -0.7 | ?
O=C(Nc1ccc(S(=O)(=O)NC2=NCCCCC2)cc1)c1ccc(Cl)cc1Cl | / | / | / | 25.1 | 2.0
CCCn1c(SCC(=O)c2ccc3c(c2)OCCO3)nnc1-c1ccco1 | -13.1 | 2.8 | 0.4% | 4.5 | 20.0
CC1CCCN(C(=O)C2CCN(CC(C)c3ccccc3)CC2)C1 (stereo not given) | -17.9 | 1.2 | -0.6% | -0.2 | -6.8
CCn1cc(C(=O)O)c(=O)c2cc(F)c(N3CCN(C(=S)Nc4ccc(OC)cc4)CC3)cc21 | / | / | ? | -4.8 | 98.0
NS(=O)(=O)c1ccc(CNC(=O)c2cc(-c3cccnc3)nc3ccc(Br)cc23)cc1 | / | / | / | -0.9 | -10.9
Cc1c(Cl)cccc1NC(=S)NCc1ccccc1 | 4.7 | / | 1.4% | 3.0 | -1.6
CCOc1cc(C2NC(=O)NC(c3ccccc3)=C2C(C)=O)ccc1OC(C)=O (stereo not given) | / | 10.3 | -8.1% | 19.3 | -2.5
Cc1cc2nccc(-c3cccnc3)n2n1 | / | 0.7 | 4.8% | -6.6 | -9.6

Gathered by group: the compounds so far containing an aryl thioether with sulfur outside any ring
SMILES | YopH inh | Arbovirus inh | Mtb growth | RecA intein inh | Mtb bLac sens | others
Cc1nnc(SCC(=O)Nc2sc3c(c2C(N)=O)CCCC3)[nH]c1=O | -31.3 | 0.4 | -13.5% | -2.7 | -4.1
CCCn1c(SCC(=O)c2ccc3c(c2)OCCO3)nnc1-c1ccco1 | -13.1 | 2.8 | 0.4% | 4.5 | 20.0

Carrying on:
SMILES | YopH inh | Arbovirus inh | Mtb growth | RecA intein inh | Mtb bLac sens | others
C/C=C/C=C/C(=O)OCC(=O)Nc1ccc(Cl)cc1 | / | 3.2 | 5.5% | 0.1 | 72.9
NS(=O)(=O)c1ccc(CCN2C(=O)CCC2=O)cc1 | / | / | / | -6.6 | -3.4
O=C(N/N=C/c1ccc(Cl)cc1)c1cc2c(s1)-c1ccccc1CC2 | -49.9 | -25.3 | 5.6% | -17.9 | 27.8
COc1ccc(NC(=S)Nc2ccc3nc(C)c(C)nc3c2)cc1 | -35.4 | 8.1 | 3.2% | -11.0 | -1.6
CCc1ccccc1-n1ncc(C(=O)Nc2ccccc2OC)c1C | / | / | / | 1.9 | -1.3
COc1cccc(OC)c1OCCOCCn1cnc2ccccc2c1=O | -19.9 | -0.6 | -1.8% | -0.1 | -13.9
Cc1ccc(NC(=O)N2CCCn3c(SCC(=O)c4ccccc4)nnc32)cc1 | / | / | 60.8% | 4.1 | -7.9
COc1ccc(NC(=O)C(c2ccc(C)cc2)N(C)C(=O)c2cnccn2)cc1 (stereo not given) | -26.8 | 2.5 | -0.6% | / | 0.7 | Arbovirus inh repeat=-0.4
COc1ccc(-c2csc3ncn(-c4cccc(C)c4)c(=O)c23)cc1OC | / | -10.7 | 11.0% | 1.6 | 0.8
CC1CCCCN1C(=O)Nc1ccccc1Cl (stereo not given) | / | 2.0 | -2.8% | -1.9 | -6.9
CCCCn1nc2cc(C(=O)NCC3CC3)ccc2c1OCC | -38.7 | -3.1 | -7.3% | 2.0 | 1.2
O=C(CCC1CCCCC1)NCCS(=O)(=O)N1CCN(c2ccc(F)cc2)CC1 | / | / | / | -2.3 | -11.3
COc1ccc(CSc2nnc(NC(C)=O)s2)cc1[N+](=O)[O-] | / | -4.2 | -6.8% | / | /
COc1ccc2nc(SCC(=O)Nc3ccccc3C)[nH]c2c1 | 19.3 | -1.1 | -5.4% | 0.1 | -7.7
CCOC(=O)c1c(C)[nH]sc1=S | -46.6 | -2.2 | / | -0.1 | /
CCn1cc(CN2CCC(n3nccc3NC(=O)c3cccc(F)c3)CC2)c(C)n1 | / | / | / | 1.4 | 1.1
COc1ccc(CCNC(=O)c2cnc(Cl)c(Cl)c2)cc1 | / | / | / | -1.7 | 0.7
Cc1ccc(C(=O)NNC(=O)CNc2cccc(Cl)c2)cc1 | / | 0.8 | -8.1% | 5.3 | 7.7
Cc1ccc(S(=O)(=O)c2cc3c(=O)n4ccccc4nc3n(C)c2=N)cc1 | -18.3 | 3.8 | / | -22.1 | -2.0
Cc1ccc(S(=O)(=O)Oc2ccc3ccc(O)cc3c2)cc1 | / | / | / | 5.5 | -6.1

Pulled by structure from above, 4 records:
SMILES | YopH inh | Arbovirus inh | Mtb growth | RecA intein inh | Mtb bLac sens | others
Cc1ccc(S(=O)(=O)c2cc3c(=O)n4ccccc4nc3n(C)c2=N)cc1 | -18.3 | 3.8 | / | -22.1 | -2.0
COc1ccc2nc(SCC(=O)Nc3ccccc3C)[nH]c2c1 | 19.3 | -1.1 | -5.4% | 0.1 | -7.7
COc1ccc(CSc2nnc(NC(C)=O)s2)cc1[N+](=O)[O-] | / | -4.2 | -6.8% | / | /
CCOC(=O)c1c(C)[nH]sc1=S | -46.6 | -2.2 | / | -0.1 | /

The listing continues:
SMILES | YopH inh | Arbovirus inh | Mtb growth | RecA intein inh | Mtb bLac sens | others
CCOC(=O)N1CCN(S(=O)(=O)c2ccc(C)cc2)C1 | / | / | 17.6% | -0.3 | -6.3
CC(=O)NC(CCCN1C(=O)c2ccccc2C1=O)c1nnn(C)n1 (stereo not given) | -25.9 | -1.3 | -1.4% | 0.3 | 5.5
CC(C)CCNC(=O)C1CCN(S(=O)(=O)c2ccc3nc4c(c(C(=O)O)c3c2)CCCCC4)CC1 | / | / | / | 1.3 | 4.9
CCN(CC)c1ccc(/C=N/N2CCOCC2)c(O)c1 | -24.7 | -6.7 | 2.2% | -7.1 | 1.5
O=C(O)c1ccccc1C(=O)NCc1ccc2c(c1)OCO2 | / | / | / | -0.6 | -1.6
CC(=O)OC1C([N+]2(C)CCCCC2)C[C@H]2C3CC[C@H]4C[C@H](OC(C)=O)C([N+]5(C)CCCCC5)CC4(C)[C@H]3CCC12C (stereo not given in full) | / | / | -7.1% | -4.5 | 0.5
O=C(N/N=C/c1ccc(OC(F)F)cc1OC(F)F)c1ccc(Br)cc1 | -26.5 | -5.5 | -3.6% | 0.5 | 4.3
COc1ccccc1CNC(=O)c1sccc1-c1ccccc1 | / | / | / | 5.3 | 4.6
Clc1ccc(OCc2nn3c(-c4ccco4)nnc3s2)cc1 | -33.7 | 2.5 | 16.8% | 6.8 | -6.5
O=C(NCC1CCCO1)C1CCN(S(=O)(=O)c2cccc3nonc23)CC1 (stereo not given) | 6.3 | 3.6 | -0.2% | -0.4 | 8.9
Cc1ccc(-n2cnn(-c3ccc([N+](=O)[O-])cc3[N+](=O)[O-])c2=O)cc1 | / | / | / | -0.9 | 39.6
COCCNC(=S)N(CCc1c(C)[nH]c2ccc(F)cc12)Cc1cccs1 | / | -24.9 | 6.0% | 7.6 | 6.8
CC(C)CC(CO)N1CCN(C(=O)c2ccc(Cl)c(Cl)c2)CCC1=O (stereo not given) | / | / | 0.0% | -1.6 | -0.2
COc1ccccc1CNC(=O)C1CCN(S(=O)(=O)c2ccc3c(c2)NC(=O)CO3)CC1 | / | / | / | -4.7 | -2.6
Cc1ccc(CC2S/C(=C(/C#N)C(=O)NCc3ccco3)N(c3ccccc3)C2=O)cc1 (stereo not given) | -8.2 | 1.0 | 2.1% | 3.2 | 0.8 | Arbovirus inh repeat=4.2
C=CCNC(C(=O)Nc1cccc(OC)c1)c1ccccc1 (stereo not given) | / | -11.3 | -8.1% | 2.0 | -1.8
CN(C)CCCn1c(NC(=O)C2CCCCC2)nc2ccccc21 | -13.1 | -2.1 | 3.2% | 0.2 | 7.5
COc1ccc(C2=NOC(C(=O)Nc3ccc(C)cc3)C2)cc1OC (stereo not given) | -47.9 | 9.3 | 3.5% | / | -6.9
Cc1ccc(NS(=O)(=O)c2ccccc2)c2c1CC(C)(C)O2 | -17.8 | 2.2 | 16.2% | 0.8 | -0.1
COc1ccc(-n2c(O)c(/C=N/NS(=O)(=O)c3ccc(C)c([N+](=O)[O-])c3)c3ccccc3c2=O)cc1OC | / | 0.1 | -0.9% | -6.3 | 7.9
Cc1ccc(-c2nc3ccccc3s2)cc1S(=O)(=O)N1CCCC1 | -23.6 | -10.7 | 15.3% | 1.8 | -4.3
CN(C1CCS(=O)(=O)C1)S(=O)(=O)c1cccc2nsnc12 (stereo not given) | -4.8 | 6.1 | -7.8% | 1.2 | -2.0
